Bioassay records as filed in PubChem BioAssay.
TRPV1 PAM – HTS Assay for Compounds that Act as Potentiators of the Vanilloid Receptor 1 | Transient receptor potential cation channel subfamily V member 1 (Homo sapiens), Q8NER1 | TRPV1-expressing cells, Fluo-8 calcium influx, capsaicin EC20 potentiation; host cell line not named in the record; control for the full effect not named in the record | potentiation, % at 8.33 µM | 0.02% of 320,000 active | AID 540277, 2011; active means potentiation above 80%; inconclusive means 30% to 80%; inactive means below 30%; note: 0% is about no effect
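Cells expressing TRPV1 were dye-loaded with Fluo-8 and read kinetically: 10 s baseline, 3 min after compound (agonist portion), then 2 min after EC20 capsaicin (allosteric enhancer portion). Calcium-bound dye fluorescence at 480/520 nm.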
Sfp PPTase inh – qHTS Assay for Inhibitors of Bacillus subtilis Sfp phosphopantetheinyl transferase (PPTase) | 4'-phosphopantetheinyl transferase ffp (Bacillus subtilis), Q9F4F7 | Biochemical Sfp PPTase activity, qHTS | Potency, µM, inactives show max response, negative = inhibition, most hits filed as inhibitors | 3.5% of 310,000 active | AID 1490, 2009; active = well fitted inhibition curve with a large enough effect; inconclusive = small, poorly fitted or top-dose-only effect, or another doubt; inactive = no such curve, though single readings can be large or run the other way;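 note: the enzyme is Sfp with the accession as filed and its product quenches rhodamine fluorescence; potency is the fitted concentration of half-maximal effect; 0% = enzyme reaction without inhibitor and -100% = no enzyme wells; top concentration of the series not given in the record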
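Sfp 15 nM + cpd, 15 min RT; start w/ rhodamine-CoA 5 uM, BHQ-2-YbbR 12.5 uM (final); 50 mM Hepes pH 7.6, 10 mM MgCl2, 0.01% NP-40, 0.01% BSA; read 525/598 nm at 0 and 30 min.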
TRPML1 blocker – qHTS for Inhibitors of the Human Mucolipin Transient Receptor Potential 1 (TRPML1) | TRPML1-inducible cells, Ca2+ dye fluorescence, FDSS; hits give low values; inhibition of EC80 agonist-evoked calcium signal | activity change, negative = inhibition, % (no concentration beside the values) | 0.02% of 390,000 active; in the data active means activity change below about -50%; inconclusive means about -30% to -50%; inactive means above about -30%;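 note: stimulus is agonist 54-4 at its EC80 concentration; % is set by controls: 0 for no effect and ±100 for the full control effect; compound concentration not given in the record; the text of the record puts the active cut at -80%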
Target sequence (Q9GZU1 whole entry, looked up): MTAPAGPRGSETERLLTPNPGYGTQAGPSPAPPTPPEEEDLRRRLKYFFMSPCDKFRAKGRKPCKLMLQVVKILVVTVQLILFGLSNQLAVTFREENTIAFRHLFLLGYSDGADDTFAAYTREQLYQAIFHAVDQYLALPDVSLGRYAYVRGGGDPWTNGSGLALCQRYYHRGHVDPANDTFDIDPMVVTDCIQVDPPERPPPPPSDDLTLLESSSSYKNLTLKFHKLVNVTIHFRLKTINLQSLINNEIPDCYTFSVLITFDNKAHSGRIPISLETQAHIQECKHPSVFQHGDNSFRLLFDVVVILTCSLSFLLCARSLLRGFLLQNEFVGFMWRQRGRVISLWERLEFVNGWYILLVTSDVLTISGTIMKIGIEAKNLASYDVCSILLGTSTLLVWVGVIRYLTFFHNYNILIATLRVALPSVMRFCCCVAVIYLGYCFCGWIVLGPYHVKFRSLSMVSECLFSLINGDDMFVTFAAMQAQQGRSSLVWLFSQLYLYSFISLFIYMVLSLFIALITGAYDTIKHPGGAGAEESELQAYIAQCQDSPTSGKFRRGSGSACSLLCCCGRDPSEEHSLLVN
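TRPML1-DL cells, Tet-induced overnight (~16 h, 37 °C) at 1,500 cells/well, were loaded with Ca8 no-wash dye plus quencher for 45-90 min at room temperature. Compounds were pinned during FDSS kinetic reading; agonist 54-4 at EC80 (4 uM final) then added.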
ClpP mod – qHTS Assay for Activators of ClpP; AID 651965, 2013; 1.9% of 340,000 active; ATP-dependent Clp protease proteolytic subunit (Bacillus subtilis (strain 168)), P80244; purified B. subtilis ClpP, FRET peptide cleavage, 20 min; Potency, µM (highest dose often 57.5 µM), inactives show at the top dose activity change, negative = active; active = well fitted falling curve with a large enough effect; inconclusive = small, poorly fitted or top-dose-only effect; inactive = no such curve, though single readings can be large or run the other way; note: potency is the fitted concentration of half-maximal effect; the source files actives as falling curves though it sought activators and does not explain the sign; nearly all actives have a fitted effect of over 65% in size; many hits overshoot -100%
Target sequence (P80244 whole entry, looked up): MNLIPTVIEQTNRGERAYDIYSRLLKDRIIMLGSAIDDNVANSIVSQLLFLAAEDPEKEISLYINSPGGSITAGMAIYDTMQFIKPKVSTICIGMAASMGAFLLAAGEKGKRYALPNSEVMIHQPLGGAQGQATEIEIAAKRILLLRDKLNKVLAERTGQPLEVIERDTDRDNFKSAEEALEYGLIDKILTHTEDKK
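Buffer: 100 mM Tris/HCl pH8, 100 mM KCl, 0.05% low protease BSA, 2.5% glycerol, 0.01% Tween-20. ClpP 10 microg/mL final; 20 min RT; delta FRET normalized to ADEP and DMSO controls.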
gsp antagonist – qHTS for Antagonists of gsp, the Etiologic Mutation Responsible for Fibrous Dysplasia/McCune-Albright Syndrome: qHTS; gsp-mutant cells, cAMP HTRF, 30 min; control for the full effect not named in the record; Potency, µM (titrated, usually from 76.9 µM), inactives show at the top dose activity change, negative = inhibition, usual class: inhibitors; 0.4% of 340,000 active; AID 624288, 2012; active = falling curve of any shape with a large fitted effect; inconclusive = falling curve, mostly with a smaller effect; inactive = flat or rising curve; cell line not stated here;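 note: intracellular cAMP measured with PDE inhibitor Ro 20-1724 present during compound exposure; potency is the fitted concentration of half-maximal effect; % is set by controls: 0 for no effect and ±100 for the full control effect; nearly all actives have a fitted effect of over 65% in size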
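HTRF cAMP measurement after 30 min RT detection following 30 min, 37C compound treatment alongside […] (added as 300 uM solution) in G418-selected cells seeded at 2000/well and grown 16–24 h.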
gsp agonist – qHTS for Agonist of gsp, the Etiologic Mutation Responsible for Fibrous Dysplasia/McCune-Albright Syndrome: qHTS; gsp mutant cells, cAMP HTRF, 30 min; control for the full effect not named in the record; Potency, µM (highest dose often 76.9 µM), without a hit: at the highest dose activation (cAMP increase), hits mostly activators; 0.13% of 340,000 active; AID 624287, 2012; active = well fitted activation curve with a large enough effect; inconclusive = small, poorly fitted or top-dose-only effect, or another doubt; inactive = no such curve, though single readings can be large or run the other way; cell line not stated here;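 note: phosphodiesterase inhibitor Ro 20-1724 added with compounds to block cAMP breakdown; potency is the fitted concentration of half-maximal effect; nearly all actives have a fitted effect of over 60% in size; about a fifth of the inactives were tested at one dose only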
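Cells in DMEM/10% FBS with G418 were pretreated with compounds in DMSO plus […] (300 uM stock) for 30 min at 37C. cAMP was measured by HTRF (cAMP-d2 plus anti-cAMP antibody-K) after 30 min at room temperature.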
Menin-MLL FL inh – qHTS Assay for Inhibitors Targeting the Menin-MLL Interaction in MLL Related Leukemias: Competition With Fluorescein Labeled MLL-derived Peptide; Fluorescence polarization, fluorescein-MLL peptide displacement from menin; FP activity change, % at 61.4 µM; 290,000 tested, under 10 active; inconclusive = falling polarisation curve, or a change in total fluorescence; inactive = total fluorescence flat and polarisation flat or rising; no compound was filed as active; the % refers to the polarisation; negative = inhibition;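 note: % of control where 0% means no effect; inhibitors lower the polarisation; unlabelled MLL peptide was the positive control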
Numbers without * were called inactive; ? = inconclusive; . = no result given; & = joins results of further samples; [ ] = another dose, or the depositor's remark.

No.	Compound	TRPV1 PAM	Sfp PPTase inh	TRPML1 blocker	ClpP mod	gsp antagonist	gsp agonist	Menin-MLL FL inh
1	CN(C)C(CNC(C(=O)Nc1ccc(F)cc1)c1ccccc1)c1ccccc1 (stereo not given)	-1	6%	2	.	5%	19%[15.4 µM]	.
2	C=CCn1c(SCC(=O)C(C)(C)C)nnc1-c1ccccn1	-15	19%	-3	-0.5%	5%	-42%[inhibitor]	2.7
3	c1ccc(-n2cnc3cc(NCc4ccco4)ccc32)cc1	-4	-4%	38	-0.4%	-21%	31%[15.4 µM]	0.1
4	O=C(Nc1ccc(-c2nc3ccccc3[nH]2)cc1)C1CCCN(Cc2ccn[nH]2)C1 (stereo not given)	.	.	7	4.5%	.	-36%[inhibitor]	.
5	Cc1noc(C)c1CSCC(=O)Nc1nc(-c2ccc(F)c(F)c2)cs1	?	.	-5	.	35µM*	14%[15.4 µM]	.
6	FC(F)(F)c1cc(-c2ccccn2)nc2cc(-c3ccccc3)nn12	-11	-18%	7	-1.5%	11%	1%[15.4 µM]	9.7
7	O=[N+]([O-])c1ccccc1/C=N/n1c(C(F)(F)F)n[nH]c1=S	3	22µM*	-3	.	?	-10%[15.4 µM]	-0.1
8	COc1ccc(C(=O)Nc2cccc(NC(=O)c3cccs3)c2)cc1OC	10	12%	-11	-0.1%	-18%	3%	-0.4
9	CN(C)CCC(C(=O)c1ccccc1)c1cccnc1 (stereo not given)	.	.	11	-1.8%	5%	15%	.
10	COCCNC(=O)c1noc2c1CCc1cc(OC)ccc1-2	13	19%	-5	-11%	2%	7%	-1.5
11	COc1ccccc1CNC(=O)c1ccc2c(c1)OCO2	-12	8%	-9	.	2%	1%	-5.2
12	CCc1ccc2nc(SCC(=O)N3CCCCC3)c(C#N)cc2c1	.	.	-7	1.7%	-13%	-5%	.
13	COc1ccc(OC)c(/C=N/NC(=O)CCCC(=O)Nc2cccc(Br)c2)c1	9	-1%	14	25µM*	-5%	?	-0.3
14	N#Cc1sc2nccc(Nc3ccccc3)c2c1N	.	.	8	.	-10%	1%[15.4 µM]	.
15	COc1cc(C=O)ccc1OS(=O)(=O)c1ccc(NC(C)=O)cc1	21	-30%	8	1.5%	6%	17%	3.8
16	Cc1cccc(CSC2=NCCN2C(=O)c2ccc(Br)o2)c1	-7	-19%	14	-0.2%	-5%	-49%[inhibitor]	-1.3
17	COc1cc2c(-c3ccc4cc[nH]c4c3)c(-c3ccsc3)oc(=O)c2cc1OC	5	.	-2	?	-11%	-26%	.
18	CCOc1ccc(CN(C)C(=O)c2ccc(S(=O)(=O)N(C)c3ccccc3OC)cc2)cc1	-18	.	-7	-3.4%	-24%	-43%[inhibitor]	.
19	CN(C(=O)CSc1nc2sc3c(c2c(=O)n1C)CCC3)C1CCS(=O)(=O)C1 (stereo not given)	4	.	19	0.7%	-13%	-22%	.
20	CC1(C)CN(c2ccc(C(=O)c3ccccc3)cc2)C1=O	6	15%	0	.	3%	-20%	0.0
21	O=C(COc1ccccc1)NCC1(N2CCCCC2)CCCCC1	-6	4%	10	.	16%	-11%[15.4 µM]	-0.5
22	C[N+]1(C)CCC(=C2c3ccccc3CC(=O)c3sccc32)CC1	.	6%	4	0.4%	5%	-45%[inhibitor]	0.9
23	CCCCN(C)C(=O)CS(=O)(=O)Cc1nc(-c2cccc(OC)c2)oc1C	7	-2%	-2	-8.5%	1%	21%	3.7
24	COc1ccc(CCN2CC(C(=O)NCCc3ccc(C)cc3)CC2=O)cc1OC (stereo not given)	4	10%	-18&6	1.0%&-3.8%	2%	6%	-3.3
25	Cc1nn(-c2ccccc2)c(-c2ccccc2)c1C(=O)O	1	30%[activator]	1	-1.4%	-3%	36%	-0.6
26	Nc1ccc(S(=O)(=O)NN=Cc2ccccc2[N+](=O)[O-])cc1	.	.	-10	.	-2%	-52%[inhibitor]	.
27	Cc1cccc(CSc2nc3c(c(-c4cccs4)c2C#N)CN(C)CC3)c1	-14	-26%	34	-7.3%	-8%	-44%[inhibitor]	.
28	O=C(COC(=O)c1nc(Cl)ccc1Cl)Nc1ccc(Cl)cc1	2	.	-3	1.8%	-11%	?	.
29	Cn1cc(CC(=O)Nc2cccc(C#N)c2)c2ccccc21	-3	-8%	2	-1.8%	5%	16%	4.0
30	O=C(c1ccc2c(=O)n(Cc3ccc(Cl)cc3)c(=S)[nH]c2c1)N1CCOCC1	21	0%	0	0.9%	-24%	-3%	4.4
31	COc1cc(NCc2ccccc2)c2ncn(Cc3ccccc3)c2c1	.	.	-3	-5.9%	-5%	.	.
32	CN(C)C(CNC(=O)c1ccc2nc[nH]c2c1)c1ccccc1 (stereo not given)	0	15%	-10	0.5%	16%	1%	-0.2
33	CSc1ccccc1NC(=O)c1c(Br)cnn1C	-1	-2%	-6	-8.9%	7%	-17%	-1.3
34	CCOC(=O)c1cc(S(=O)(=O)N2CCN(C3CCCCC3)CC2)cn1C	0	19%	-5	0.8%	16%	-6%	2.7
35	CCc1ccc(N2CC(C(=O)Nc3cc(C)on3)CC2=O)cc1 (stereo not given)	-30	9%	28	-1.2%	-5%	-21%[15.4 µM]	-1.9
36	O=C(NN1C(=O)C2C3C=CC([C@@H]2C1=O)C31CC1)c1ccccc1 (stereo not given in full)	-4	17%	-4	0.8%	0%	0%	-1.6
37	COc1ccc(C(=O)COc2ccc3c(C)cc(=O)oc3c2)cc1	11	-3%	0	4.5%	-15%	12%	-3.7
38	COc1ccc(OC)c(NC(=S)N2c3ccccc3CC2C)c1 (stereo not given)	-6	-19%	9	-3.1%	-1%	28%	.
39	CC1CCCN(C(=S)Nc2ccc(Nc3ccccc3)cc2)C1 (stereo not given)	2	?	45	.	4%	12%[15.4 µM]	3.8
40	CC1CCCN(Cc2nc3c(c(=O)n(C)c(=O)n3C)n2Cc2c(F)cccc2Cl)C1 (stereo not given)	28	15%	-4	0.9%	0%	-24%	3.7
41	CNC(=S)N/N=C/c1ccc(-c2ccc(Cl)c([N+](=O)[O-])c2)o1	2	-14%	5	.	-26%	15%[15.4 µM]	-2.4
42	CCC(=O)N1CCc2cc(S(=O)(=O)N3CCN(c4ccccc4)CC3)ccc21	-1	-2%	-5	-1.7%	4%	-5%	.
43	Cc1ccccc1C1CC(c2ccc(Br)cc2)Nc2nc(N)nn21 (stereo not given)	2	6%	-4	-2.7%	-1%	-29%	-0.4
44	S=C(NCc1ccc(Cl)cc1)Nc1ccc(Cl)cc1Cl	-3	5%	5	-2.0%	-7%	16%	0.9
45	CC(C)COC(=O)N(C)C[C@H]1OCc2cnnn2CCCC(=O)N([C@@H](C)CO)C[C@H]1C	.	.	-3	3.4%	.	-93%[inhibitor]	.
46	O=C(CSCC(=O)OCC(=O)c1ccc(Br)cc1)Nc1cccc2ccccc12	5	16%	6	-1.1%	-9%	5%	5.6
47	Cc1cc(C(=O)NNC(=S)Nc2ccccc2)nn1C	0	14%	67	.	3%	-30%[15.4 µM]	-0.4
48	O=C(O)CC/C(=C\c1cc2c(cc1Br)OCO2)c1nc2ccccc2s1	6	50µM*	-9	.	-17%	-7%	0.3
49	COc1ccc(-c2cn3c(C)c(C(=O)NCc4ccc5c(c4)OCO5)sc3n2)cc1	.	.	-10	-19%	-3%	?	.
50	O=C(CCN1C(=O)/C(=C/c2ccccc2Cl)SC1=S)NCCc1ccc(O)cc1	-13	6%	48	1.9%	-11%	-2%	0.2
51	Cc1ccc(CN(N=Nc2nonc2N)c2nonc2N)c(C)c1	.	.	6	1.1%	7%	9%	.
52	O=C(OCc1ccccc1F)c1cc(S(=O)(=O)N2CCCCC2)ccc1N1CCOCC1	.	.	36	-3.5%	.	2%	.
53	Cc1ccc(C(=O)NC2CC3CCCC(C2)N3C(=O)NC2CCCCC2)cc1 (stereo not given)	11	10%	.	.	.	.	1.6
54	COC(=O)c1ccc(CNCC(=O)Nc2ccc(C(=O)OC)cc2)cc1	-13	-1%	14	-3.5%	1%	-68%[inhibitor]	0.2
55	Cc1cc(C)cc(OCC(=O)Nc2nonc2NC(=O)COc2cc(C)cc(C)c2)c1	-27	?	4	1.3%	10%	-8%	1.4
56	CC1CCCCN1C(=O)CSCC(=O)Nc1nc(-c2cccs2)cs1 (stereo not given)	?	-4%	-2	1.9%	?	-30%[inhibitor]	-1.3
57	Cc1c(O)c(CN(C)C)cc2c1oc(=O)c1ccccc12	5	9%	-1	.	0%	20%[15.4 µM]	3.7
58	O=C(Cn1cc2c(n1)CCCC2)NCc1cccc(Cl)c1	-26	2%	4	2.4%	2%	16%	-2.1
59	CCOC(=O)[C@@H]1[C@H]2COc3ccc(Br)cc3[C@H]2N2C(=O)N(c3ccc(C)cc3)C(=O)[C@@]12C	.	.	6	-2.2%	2%	19%	.
60	Cc1ccc(NS(=O)(=O)c2ccc(-n3cccn3)cc2)nc1	6	11%	11	3.8%	7%	1%	.

(further entries)
No.	Compound	TRPV1 PAM	Sfp PPTase inh	TRPML1 blocker	ClpP mod	gsp antagonist	gsp agonist	Menin-MLL FL inh
61	O=c1[nH]c(/C=C/c2ccc3c(c2)OCO3)c([N+](=O)[O-])c(=O)[nH]1	-10	14%	.	.	.	.	-5.5
62	CCc1ccc(NC(=O)C2CCN(S(=O)(=O)c3c(C)noc3C)CC2)cc1	-17	22%	-5&34	0.6%&2.6%	-3%	?	2.3
63	CCCCCCCCSC1=CC(=O)C(OC)=C(OC)C1=O	.	.	-9	-2.0%	.	?	.
64	CCN(Cc1ccccc1)S(=O)(=O)c1ccc(OC)c2ncccc12	-4	-9%	.	-4.1%	-7%	-23%	2.1

Compounds as they come; 4.9% or so of the library scored in one or more.
